Assay outcomes: PubChem BioAssay, Emory University Molecular Libraries Screening Center
Measles inh: inhibitors of measles virus growth in infected cells | infected Vero cells, GFP fluorescence, 64 h; stronger effect = lower value | z-score (concentration not given with the values) | hit rate 0.1% among 33,000;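 active means z-score under -3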;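 further: score is relative to mean and SD of the compound wells of a plate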
* hit, by the source's call. Not all compounds are listed; the hit share may differ from the screen's.

molecule	Measles inh
CS(=O)(=O)CCC(C(=O)O)N1C(=O)c2ccccc2C1=O (centres undefined)	0.85
CCC1=NN(C(=O)c2ccccc2)C(O)(C(F)(F)F)C1 (centres undefined)	1.05
O=C(C1CCN(S(=O)(=O)c2ccc(F)cc2)CC1)N(Cc1ccccc1)Cc1ccccc1	-0.94
O=c1c2sccc2nc(SCc2ccccc2Cl)n1CCN1CCCC1	-0.87
COc1cc(SC)ccc1C(=O)NCc1cc(OC)c(OC)c(OC)c1	-0.23
CCOC(=O)c1cccc(NC(=O)c2cc(-c3ccc(Cl)s3)nc3ccccc23)c1	-1.03
COc1ccc(C2C=C(c3ccc(Br)cc3)Nc3nc4ccccc4n32)cc1OC (centres undefined)	0.11
O=C(Cn1nnc(-c2ccc3c(c2)OCO3)n1)N1CCOCC1	1.07
COc1cc(C(=O)Nc2ccc3nn(-c4ccc(F)cc4)nc3c2)cc(OC)c1OC	0.23
CCCCCSc1nc2ccccc2[nH]1	-0.16
COc1cccc(-n2nc(C(=O)Nc3ccc(Br)cc3C)c3ccccc3c2=O)c1	-1
COc1ccc(Br)cc1CN1CCC(N2CCCC(C)C2)CC1 (centres undefined)	-0.55

Further entries:
molecule	Measles inh
O=C(O)c1ccc(Cl)c(N2C(=O)C3C4CCC(C4)C3C2=O)c1 (centres undefined)	-0.45
Cc1nc(NC(=O)c2ccccc2)sc1-c1csc(Nc2ccc(C(=O)O)cc2)n1	-0.29
CC1=C(C(=O)OCc2ccccc2)C(c2ccccc2I)C2=C(CCCC2=O)N1 (centres undefined)	-0.79
Cc1ccc(NC(=O)CN(c2cccc(C)c2C)S(C)(=O)=O)cc1Cl	-0.68
O=C(Cn1nnc(-c2ccccc2Cl)n1)Nc1ccc(OC(F)(F)Cl)cc1	-0.49
COC(=O)c1sc(=S)n2c3ccccc3c(=O)n(Cc3ccc(C)cc3)c12	-0.78
Cn1cc(CCC(=O)NCCCN2CCOCC2)c2ccccc21	-0.49
Cc1ccc(-n2nc3c(c2NC(=O)c2ccc(Cl)c([N+](=O)[O-])c2)CSC3)c(C)c1	-1.79
Cc1cc(=O)[nH]c2c(C)c(N)ccc12	0.51
C=CCSc1nnc2nc(-c3ccccc3)c(-c3ccccc3)nn12	0.6
COc1cc2c(cc1OC)C1C(C(=O)N3CCC(Cc4ccccc4)CC3)c3ccccc3C(=O)N1CC2 (centres undefined)	0.46
CC1CC(C)CN(c2nc3c(c(=O)n(C)c(=O)n3C)n2Cc2ccc(Cl)cc2)C1 (centres undefined)	-0.5

The listing continues.
molecule	Measles inh
O=C(CCNC(=O)c1ccc(F)cc1)NCC1CCCO1 (centres undefined)	0.82
COc1ccc(-c2cc3ccccc3[nH]2)cc1	0.36
COc1ccc(NC(=O)CC(c2ccc3c(c2)OCO3)c2ccccc2OC)cc1 (centres undefined)	0.7
N#Cc1c(NC(=O)c2ccc([N+](=O)[O-])cc2Cl)sc2c1CCCC2	-0.52
CCC(Sc1nc(C)cc(C)n1)C(=O)Nc1nnc(C)s1 (centres undefined)	-0.5
CC(=O)C1=C(O)C(=O)N(CCN2CCOCC2)C1c1ccc2c(c1)OCO2 (centres undefined)	0.07
COc1cccc(C(=O)Nc2ccc(-c3nc4ccccc4c(=O)o3)cc2)c1	0
Cc1cc(C)cc(NC(=O)CSc2nc3c(cnn3-c3ccc(C)c(C)c3)c(=O)[nH]2)c1	0.68
COc1ccc(C(=O)COC(=O)C2CCN(S(=O)(=O)c3ccc4ccccc4c3)CC2)cc1	-0.45
O=S(=O)(c1ccccc1)N1c2ccccc2-c2ccccc2S1(=O)=O	-0.31
CCC(=O)N1CCc2cc(S(=O)(=O)CCC(=O)Nc3cccc(F)c3)ccc21	-0.53
O=C1CC(c2cccs2)CC2=C1C(c1ccccc1Cl)Nc1ccccc1N2 (centres undefined)	-0.54

Carrying on:
molecule	Measles inh
Cn1c(C(=O)NCc2ccco2)cc2c(=O)[nH]c3ccccc3c21	0.79
COc1ccccc1-n1c(SCc2cccc(F)c2)nc2c(c1=O)SCC2	-0.94
CC(=O)Nc1ccccc1C(=O)N1CCN(Cc2ccccc2)CC1	-0.06
NS(=O)(=O)c1ccc(CCNC(=O)c2ccc3c(c2)[nH]c(=S)n2c4ccccc4nc32)cc1	0.34
Cc1cc(N2CCCC2)nc2ccc([N+](=O)[O-])cc12	5.21
O=C(CSCc1ccc(C(=O)O)cc1)Nc1ccc2ccccc2c1	-0.46
O=C(CN1CCCC1)NCC1(c2ccccc2)CCOCC1	1.61
Cc1ccc(C2Nc3ccc(C(=O)c4ccccc4)cc3NC3=C2C(=O)CCC3)cc1 (centres undefined)	0.66
CC(=O)c1cc(C#N)c(SCC(=O)Nc2ncc(Br)cc2Br)nc1C	-0.09
COc1ccc(C=CC2=NNC(O)(C(F)(F)F)C2)cc1 (centres undefined)	-0.14
O=C1CCCC2=C1C(c1cccc([N+](=O)[O-])c1)NC(=S)N2 (centres undefined)	0.26
CCCCNC(=O)CCn1nc(-c2ccc(Cl)cc2)ccc1=O	-0.54

Other records.
molecule	Measles inh
O=C(Cc1ccc([N+](=O)[O-])cc1)NCCO	-0.05
O=C(NCc1cccc2ccccc12)c1cccc(C(=O)NCc2cccc3ccccc23)c1	-0.64
CCc1ccc(NC(=O)c2ccc(NC(=O)C3CCCO3)cc2)cc1 (centres undefined)	-0.22
COc1ccc(C2CC(=O)C3=C(C2)Nc2ccccc2NC3c2ccc(O)c([N+](=O)[O-])c2)cc1OC (centres undefined)	1.26
COc1ccc2[nH]cc(C(=O)O)c(=O)c2c1	-0.61
CCOC(=O)c1sc2nc(Cc3ccccc3)[nH]c(=O)c2c1C	1.18
CCn1c2ccccc2c2cc(NC(=O)c3cn(C4CCCC4)c(=O)c4c3c3ccccc3n4C)ccc21	1.36
CCN(c1ccc(C)c(C)c1)S(=O)(=O)c1ccc2c(c1)CCN2C(=O)C1CCC1	1.21
COc1ccc(CNC(=O)c2cccc(-n3c(=S)[nH]c4cc(Cl)ccc4c3=O)c2)cc1	0.8
CC1CC(C)CN(S(=O)(=O)c2ccc(C(=O)N=c3sc4cc(F)ccc4n3C)cc2)C1 (centres undefined)	0.17
CCOC(=O)c1cc2c(=O)n3ccccc3nc2n(CC(C)C)c1=NC(=O)c1cc2ccccc2o1	0.15
COc1ccc(-c2c3c(=O)n(C)c(=O)n(C)c3cn2-c2cc(C)cc(C)c2)cc1	0.31

Already shown: an excerpt of the list.
molecule	Measles inh
O=C(Cc1ccc([N+](=O)[O-])cc1)NCCO	-0.05
O=C(NCc1cccc2ccccc12)c1cccc(C(=O)NCc2cccc3ccccc23)c1	-0.64

Continued.
molecule	Measles inh
CC(C)(C)c1ccc2c(c1)OCCOCCOc1cc(C(C)(C)C)ccc1OCCOCCO2	-1.94
O=S(=O)(c1ccc(C=Cc2ccc(Cl)cc2)cc1)N1CCCC1	-0.26
O=C1C2C3C=CC(O3)C2C(=O)N1c1ccccc1[N+](=O)[O-] (centres undefined)	-1.87
CCCOc1ccc(C(=O)Nc2ccc3nn(-c4ccc(OCC)cc4)nc3c2)cc1	1.68
Cc1cc(OCC(=O)Nc2sc3c(c2C(N)=O)CCC(C)C3)ccc1Cl (centres undefined)	2.24
CC(C)(C)C(=O)Nc1c2c(nn1-c1cccc(Cl)c1)CS(=O)C2 (centres undefined)	-1.53
CC(=O)Nc1nc2ccc(-c3nc4ccccc4o3)cc2s1	-0.2
CCOc1ccc(/C(O)=C2\C(=O)C(=O)N(Cc3cccnc3)C2c2ccc(Br)cc2)cc1 (centres undefined)	-0.68
CC1=C(C(=O)OCCOc2ccccc2)C(c2ccc(F)cc2)C2=C(CCCC2=O)N1 (centres undefined)	-0.39
O=C1C2=C(c3cc(O)ccc3O)CCCN2C(=O)CN1CCc1ccccc1	-0.47
COc1ccc(COC(=O)c2c(-c3ccccc3Cl)noc2C)cc1	1.09
O=C(O)c1ccc(S(=O)(=O)c2ccc3c(c2)C(=O)N(Cc2ccc(Cl)cc2)C3=O)cc1	-0.16

In the list so far, these contain a COOH group:
molecule	Measles inh
CS(=O)(=O)CCC(C(=O)O)N1C(=O)c2ccccc2C1=O (centres undefined)	0.85
O=C(O)c1ccc(Cl)c(N2C(=O)C3C4CCC(C4)C3C2=O)c1 (centres undefined)	-0.45
Cc1nc(NC(=O)c2ccccc2)sc1-c1csc(Nc2ccc(C(=O)O)cc2)n1	-0.29
O=C(CSCc1ccc(C(=O)O)cc1)Nc1ccc2ccccc2c1	-0.46
COc1ccc2[nH]cc(C(=O)O)c(=O)c2c1	-0.61
O=C(O)c1ccc(S(=O)(=O)c2ccc3c(c2)C(=O)N(Cc2ccc(Cl)cc2)C3=O)cc1	-0.16

Next records:
molecule	Measles inh
CCC(C)(C)C1CCc2c(sc(NC(=O)c3cc(Cl)ccc3OC)c2C(N)=O)C1 (centres undefined)	-0.64
CC1(C)CC(=O)c2c(oc3ccc(NS(=O)(=O)c4ccc5ccccc5c4)cc23)C1	0.25
Cc1ccc(-c2nnc(Nc3ccc4c(c3)OCO4)c3ccccc23)cc1S(=O)(=O)N1CCOCC1	0.61
CCC(C)NC(=O)C1CCN(S(=O)(=O)N2CCC(C)CC2)CC1 (centres undefined)	-0.24
N#CCc1nc(-c2ccc3c(c2)Cc2ccccc2-3)cs1	-0.34
CCC(=O)Nc1nnc(-c2ccc(Br)cc2)s1	-1.57
O=c1c2cnn(-c3ccccc3)c2nc(-c2ccco2)n1-c1cccc(Cl)c1	0.95
O=C(CCn1c(=O)c2sccc2n(Cc2ccc(F)cc2)c1=O)NCc1ccccc1	0.89
COc1ccc(CCNC(=O)c2sc(=S)n3c2[nH]c(=O)c2sccc23)cc1OC	0.17
Cc1ccc(-c2nc3cc(Cl)ccc3o2)cc1NC(=O)c1ccc(F)cc1	0.52
Cc1ccccc1N1OC2C(=O)N(c3ccc(Cl)cc3)C(=O)C2C1c1cccs1 (centres undefined)	-0.14
CCc1cccc(NC(=O)Cc2c(C(=O)O)[nH]c3ccc(Cl)cc23)c1	-2

Next part.
| Structure | Measles inh |
| --- | --- |
| O=C(Nc1ccc(NC(=O)c2cccs2)cc1Cl)c1ccccc1 | 0.57 |
| Cc1ccc2nsnc2c1NC(=O)c1cc([N+](=O)[O-])ccc1Br | 0.45 |
| O=C(Nc1nc(-c2ccc([N+](=O)[O-])cc2)cs1)c1ccc(Cl)s1 | 0.39 |
| CC(C)c1ccc(C2C3=C(CCCC3=O)NC3=C2C(=O)c2ccccc23)cc1 (centres undefined) | -0.92 |
| CCCCc1ccc(NC(=O)COc2ccc(Cl)cc2)cc1 | -0.7 |
| CC1CCCN(CCCNC(=O)C2CCCN(S(C)(=O)=O)C2)C1 (centres undefined) | -0.88 |
| Cc1ccc(CSCc2ccc(C(=O)NC3CC3)o2)cc1 | -0.29 |
| COCCNC(=O)CN1C(=O)CSc2ccc(S(=O)(=O)N3CCOCC3)cc21 | 0.9 |
| COCCOc1cc([N+](=O)[O-])cc2c1C(=O)Nc1ccccc1O2 | 2.68 |
| CC1CCCCN1S(=O)(=O)c1ccc(NC(=O)c2ncn[nH]2)cc1 (centres undefined) | -0.04 |
| Cc1cccc(Cc2c(C)nc3nc(SCC(=O)N4CC(C)CC(C)C4)nn3c2C)c1 (centres undefined) | -0.58 |
| O=C(CN1C(=O)c2cccc([N+](=O)[O-])c2C1=O)Oc1ccc2ccc(=O)oc2c1 | 3.49 |
| Cc1cc(C(=O)Nc2nncs2)ccc1[N+](=O)[O-] | -0.04 |
| O=[N+]([O-])c1ccc(C=NCC23CC4CC(CC(C4)C2)C3)cc1 | -1.37 |
| CCOC(=O)c1cc2c(=O)n3ccccc3nc2n(C2CCCCC2)c1=NC(=O)c1ccc(-c2ccccc2)cc1 | -0.78 |
| Nc1ccc(Oc2cccc(-c3ccc(N)cc3)c2)cc1 | -0.19 |
| CC1(O)c2ccccc2C(=O)N1CCc1ccccc1F (centres undefined) | -0.15 |
| Cn1c(=O)c2c(nc(NCCCc3ccccc3)n2Cc2ccc(Br)cc2)n(C)c1=O | -0.81 |
| Cc1cc(C)cc(NC(=O)CCCn2c3ccccc3c(=O)c3cc(C)ccc32)c1 | -0.04 |
| Cc1ccc(CNC(=O)CCS(=O)(=O)c2ccc(Br)s2)cc1 | 1.87 |
| CCCNC(=O)c1sc2nc(-c3ccc(OC)cc3)cn2c1C | 0.22 |
| COc1ccc(C)cc1NC(=O)c1cc(S(=O)(=O)N2CCN(c3ccc(C)cc3)C(C)C2)ccc1F (centres undefined) | 0.15 |
| Cc1ccccc1-n1nnc2c(=O)oc3ccccc3c21 | 1.53 |
| COc1ccc(C2CC(c3c(-c4ccccc4)c4cc(Br)ccc4[nH]c3=O)=NN2C(=O)c2ccncc2)cc1 (centres undefined) | -1.35 |
| Cc1ccc(/C(O)=C2\C(=O)C(=O)N(CCCN(C)C)C2c2ccco2)cc1 (centres undefined) | -0.53 |

Individual results from above:
Under Measles inh, COc1ccc(C)cc1NC(=O)c1cc(S(=O)(=O)N2CCN(c3ccc(C)cc3)C(C)C2)ccc1F (centres undefined) shows 0.15
Under Measles inh, CC(C)c1ccc(C2C3=C(CCCC3=O)NC3=C2C(=O)c2ccccc23)cc1 (centres undefined) shows -0.92
Under Measles inh, COc1ccc(C2CC(c3c(-c4ccccc4)c4cc(Br)ccc4[nH]c3=O)=NN2C(=O)c2ccncc2)cc1 (centres undefined) shows -1.35
Under Measles inh, O=C(Nc1ccc(NC(=O)c2cccs2)cc1Cl)c1ccccc1 shows 0.57
Under Measles inh, COCCNC(=O)CN1C(=O)CSc2ccc(S(=O)(=O)N3CCOCC3)cc21 shows 0.9

(list continues)
| Structure | Measles inh |
| --- | --- |
| CCCN(CCC)S(=O)(=O)c1ccc2c(c1)CCN2C(=O)C1CCC1 | 1.54 |
| CC(C)CC(=O)N/C(N)=N/c1nc2ccccc2s1 | -0.36 |
| CCOc1ccc(C2Nc3ccc4ncccc4c3C3=C2C(=O)CCC3)cc1 (centres undefined) | -0.48 |
| CCCCCNC(=O)c1ccc2c(=O)n(Cc3ccccc3Cl)c(=S)[nH]c2c1 | -0.19 |
| COc1ccc(Oc2cc([N+](=O)[O-])cc3c2C=Cc2ccccc2O3)cc1 | 0.03 |
| O=C(NCc1ccco1)c1ccc2c(=O)n(CCCN3CCCC3=O)c(=S)[nH]c2c1 | -0.36 |
| Cc1c(NC2=NC(C)(C)Cc3ccccc32)c(=O)n(-c2ccccc2)n1C | 1.56 |
| Cc1ccc(/C(O)=C2\C(=O)C(=O)NC2c2ccccc2Cl)cc1 (centres undefined) | 0.27 |
| Cc1cccc(C2C=C(c3ccc(Br)cc3)Nc3nnnn32)c1 (centres undefined) | 0.28 |
